rRNA inh HTS: selective bacterial rRNA inhibition in E. coli; E. coli WT GFP vs humanized-ribosome RFP mutants, fluorescence, 24 h; hits give low values; DMSO median 0, no signal -100; GFP signal change (wild-type ribosome), % (concentration not given with the values); 350,000 tested, 1.6% active; AID 720706;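 active = significant combined selectivity score with lowered wild-type GFP, culture density cut under 30%, mutant RFP and density less affected; inactive = any of these conditions unmet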; also: one replicate is shown; some compounds called inactive have numbers as strong as hits
FGF22 binding: binders of recombinant human FGF22 by thermal shift. Q9HCT0. SYPRO orange fluorescence; percent of sucrose octasulfate shift, DMSO zero. calls only at 9.99 µM. 340,000 tested, 1.5% active. AID 651658;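 active = melting point raised past a set limit in the mean and every replicate; three in four hits are not shown here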
Target sequence (Q9HCT0 whole entry, looked up): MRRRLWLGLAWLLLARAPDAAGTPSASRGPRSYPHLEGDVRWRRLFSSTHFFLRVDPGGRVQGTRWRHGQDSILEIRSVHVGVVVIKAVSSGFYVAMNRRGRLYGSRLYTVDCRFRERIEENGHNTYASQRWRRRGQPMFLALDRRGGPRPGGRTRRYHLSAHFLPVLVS
T cruzi repl: blocks replication of Trypanosoma cruzi; T. cruzi beta-gal in NIH3T3, luminescence, 90 h; inhibition, % (concentration not given with the values); 300,000 tested, 1.4% active; AID 1885;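 active = mean inhibition across valid replicates above about 55%, limit read from the data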;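 also: signal also drops with host cell toxicity which is not excluded here; 0% = plate median of DMSO wells and 100% = zero luminescence signal; higher percent means less beta-gal luminescence so fewer parasites; stock transfer was 50 nL into about 50 µL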
Beta cell apopt: beta cell apoptosis inhibition; INS-1E cytokine-induced death, ATP luminescence, 48 h; percent of positive-control rescue, neutral wells zero; protection from apoptosis, % (no concentration beside the values); 300,000 tested, 0.8% active; AID 435005;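 active = all replicates at 75% or more, or half of them and the mean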;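 also: 0% = cytokine-treated negative control wells and 100% = positive control rescue; higher means more ATP so stronger rescue from cytokine killing; wells of about 40 µL received 100 nL stock; the first replicate is given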
UCH37 inh: human UCH37 deubiquitinating enzyme inhibition. purified proteasome/UCH37, Ub-AMC cleavage fluorescence. 330,000 tested, 0.33% active. Q9Y5K5. inhibition, % (no concentration beside the values). AID 588478;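 active = mean of two replicates above 20%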;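 also: 0% = compound-free wells with enzyme and 100% = wells lacking proteasome; stock transfer was 100 nL into about 20 µL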
Target sequence (Q9Y5K5 whole entry, looked up): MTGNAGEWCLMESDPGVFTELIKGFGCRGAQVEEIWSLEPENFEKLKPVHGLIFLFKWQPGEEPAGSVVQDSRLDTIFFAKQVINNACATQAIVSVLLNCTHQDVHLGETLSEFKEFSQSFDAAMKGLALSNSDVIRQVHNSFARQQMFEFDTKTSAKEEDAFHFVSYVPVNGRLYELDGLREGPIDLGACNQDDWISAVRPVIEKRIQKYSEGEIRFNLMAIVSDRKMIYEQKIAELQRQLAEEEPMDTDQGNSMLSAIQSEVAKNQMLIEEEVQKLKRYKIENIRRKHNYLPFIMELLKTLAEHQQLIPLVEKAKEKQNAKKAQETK
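Assay system: Proteasome-bound UCH37. Buffer or medium: pH 7.4 Tris-HCl (50 mM) with ovalbumin, ATP-MgCl2, DTT. Incubation: 30 min preincubation with enzyme, 25 min cleavage at room temperature. Measured by: fluorescence, ex 355 nm, em 460 nm. Read-out basis: percent inhibition. Control set: wells without proteasome as full block, compound-free enzyme plus substrate as uninhibited.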
Bfl-1 A1 inh: inhibitors of the anti-apoptotic protein A1, read as caspase activation | AID 2462 | MEF A1-2A-BIM cells, Caspase-Glo 3/7 luminescence, 3 h; percent of clofoctol response, vehicle zero | caspase activation, % (concentration not given with the values) | 330,000 tested, 0.066% active;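 active = over half of replicate activation scores above 10%, or exactly half above 10 with the replicate mean above 10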;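 also: wells of about 30 µL received 50 nL stock; many hits fall short of the cut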
AF4-AF9 inh: MLL-AF4/AF9 protein interaction inhibition | P42568 | AlphaScreen, biotin-AF4 peptide binding to FLAG-AF9 | inhibition, % at 10 µM | 350,000 tested, 0.47% active | AID 651704;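 active = every replicate reaching a set inhibition limit, whatever the replicate mean, cut at about 25% in these data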;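 also: 0% = plate neutral control median and 100% = total signal loss; the record names both 10 and 1 µM as test concentration; the first replicate is given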
Target sequence (P42568 whole entry, looked up): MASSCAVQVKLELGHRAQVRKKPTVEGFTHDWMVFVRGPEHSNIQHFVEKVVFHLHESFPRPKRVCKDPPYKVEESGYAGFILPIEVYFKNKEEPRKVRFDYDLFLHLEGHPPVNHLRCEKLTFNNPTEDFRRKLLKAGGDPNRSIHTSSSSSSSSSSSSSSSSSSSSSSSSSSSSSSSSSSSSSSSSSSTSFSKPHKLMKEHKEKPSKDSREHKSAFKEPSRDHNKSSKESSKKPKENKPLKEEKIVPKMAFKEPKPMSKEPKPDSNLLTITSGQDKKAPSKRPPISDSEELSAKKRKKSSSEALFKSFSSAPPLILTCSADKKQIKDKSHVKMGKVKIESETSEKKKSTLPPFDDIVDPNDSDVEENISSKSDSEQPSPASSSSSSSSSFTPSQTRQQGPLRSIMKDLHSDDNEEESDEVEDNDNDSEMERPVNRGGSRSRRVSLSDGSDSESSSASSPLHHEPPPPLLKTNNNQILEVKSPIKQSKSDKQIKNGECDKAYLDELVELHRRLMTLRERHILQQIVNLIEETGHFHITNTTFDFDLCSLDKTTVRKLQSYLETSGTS
E coli growth: blocks Escherichia coli growth. OD600 absorbance (concentration not given with the values). OD600, 23 h; hits give low values. 330,000 tested, 0.21% active;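 active = OD600 absorbance below the run mean of sample wells minus 3.6 SD, in any replicate, cut at about 0.56 in these data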;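 also: stock transfer was 300 nL into about 60 µL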
rRNA inh HTS OD600: second read-out of rRNA inh HTS, no call of its own (marks repeat the call); OD600 change, %; measured here: OD600 growth;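 optical density of the mix in the first replicate; 0 = DMSO median and -100 = no signal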
rRNA inh HTS RFP: recorded beside rRNA inh HTS, whose call it bears; RFP signal change, %; measured here: RFP humanized mutant strains;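 first replicate; 0 = DMSO median and -100 = no signal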
Starred values were filed as active, the others as inactive; i = inactive; / = not tested or not shown; & = joins results of further samples.

SMILES	rRNA inh HTS	rRNA inh HTS OD600	rRNA inh HTS RFP	FGF22 binding	T cruzi repl	Beta cell apopt	UCH37 inh	Bfl-1 A1 inh	AF4-AF9 inh	E coli growth
Cn1nnnc1SCC(=O)N1CCCCC1	4	8	-2.9	i	-5	-3	1.0	0.2	-5.2	0.66
COc1cccc(CN(C)C(=O)CSCC(=O)Nc2ccc(C)cc2)c1OC	-1	-3	-0.9	i	2	-2	0.6	0.1	3.0	0.69
COCC(C)N=C1NN=C(c2cccs2)C(CC(=O)O)S1 (centres undefined)	/	/	/	/	-21	-6	9.3	-0.7	-7.7	0.65
COCCN(C(=O)C1=COCCO1)c1c(N)n(CC(C)C)c(=O)[nH]c1=O	6	3	3.7	i	/	1	-0.9	0.5	0.9	0.67
COc1ccccc1C(=O)Nc1cccc(NC(C)=O)c1	/	/	/	/	-3	0	0.9	-0.3	/	0.72
CCC1(C)NC(=O)N(/N=C/c2ccc(C)s2)C1=O (centres undefined)	4	7	2.5	i	-10	-8	/	0.4	-2.5	/
COc1ccc2oc(C(=O)OCC(=O)Nc3cc(S(=O)(=O)N4CCOCC4)ccc3C)c(C)c2c1	4	11	0.6	i	2	/	-39	-0.7	5.8	0.67
O=C(CCNS(=O)(=O)c1ccc(Br)cc1)NCc1ccc(F)cc1	-8	6	0.2	i	-4	1	0.5	0.1	-0.4	0.63
CC(CC(=O)NC1CCCCC1)S(=O)(=O)c1ccc2c(c1)CCN2C(=O)C1CC1 (centres undefined)	6	-2	-1.9	i	19	1	0.9	-0.4	-0.4	0.66
CCC1(c2ccccc2)NC(=O)N(CC(=O)N(C)CC(=O)Nc2c(C)cccc2C)C1=O (centres undefined)	0	8	1.7	i	-9	1	4.9	0.2	1.2	0.71
CCCCN(Cc1ccccc1)S(=O)(=O)c1cc(Br)cc2c1N(C(C)=O)C(C)C2 (centres undefined)	/	/	/	/	46	/	4.8	0.7	/	0.71
O=C(c1ccccc1)N1CCN(C(=O)c2ccc3c(c2)OCO3)CC1	5	7	-1.6	i	-7	-2	3.5	0.2	-6.8	0.7
CCCC(=O)N(Cc1cc(=O)[nH]c2ccccc12)c1ccccc1	-6	-1	5.8	i	7	-1	0.9	1.4	-1.1	0.63
Cc1c(CC=C(Cl)Cl)c(=O)[nH]c2c(C)cccc12	13	7	6.5	i	5	10	-1.7	-0.3	-1.4	0.75
COc1ccc2nc(C)cc(N/N=C/c3ccc(F)cc3)c2c1	-52	-77	-11	i	61*	107*	/	1.8	4.0	/
Cc1ccccc1OCC(O)Cn1c(Br)nc2c1c(=O)[nH]c(=O)n2C (centres undefined)	/	/	/	i	-7	3	1.0	-0.9	-1.2	0.63
COc1ccccc1NC(=O)Cn1cnc2c(nnn2-c2ccc(C)cc2)c1=O	10	1	3.2	i	-10	-1	2.6	-0.4	-3.0	0.68
COc1cnc(SC)nc1Nc1ccc(C#N)cc1	-10	-14	-1.9	i	0	4	1.0	0.7	0.2	0.67
NS(=O)(=O)c1cc2c(cc1C(F)(F)F)NCNS2(=O)=O	/	/	/	i	-8	/	-2.1	/	-11&3.3	0.66
CCCN(CCC)C(=O)Cc1ccc(F)cc1	8	-4	-5.8	i	-4	-3	0.8	0.0	-2.6	0.67
Cc1cc2oc(C(=O)NCc3ccc(S(N)(=O)=O)cc3)c(C)c2cc1C	4	1	-4.1	i	-16	-2	-0.5	0.1	-2.5	0.71
COc1ccc(OCC(=O)N(Cc2sccc2C)C2CCS(=O)(=O)C2)cc1 (centres undefined)	-6	-15	1.6	i	1	-3	1.0	0.0	-0.9	0.7
Cc1ccc(C(=O)NCC(=O)OC(C)C(=O)NC2CCCCC2C)cc1C (centres undefined)	7	13	2.5	i	-15	2	-0.6	1.7	-1.0	0.71
COC(=O)Cn1c(SCc2ccccc2)nc2ccccc21	/	/	/	/	4	2	2.1	-0.7	/	0.73
CCSc1nc2c(c(=O)[nH]1)C(c1ccncc1)C(C(=O)OC)=C(C)N2 (centres undefined)	/	/	/	/	3	-7	-1.5	-0.4	/	0.69
New compounds follow:
SMILES	rRNA inh HTS	rRNA inh HTS OD600	rRNA inh HTS RFP	FGF22 binding	T cruzi repl	Beta cell apopt	UCH37 inh	Bfl-1 A1 inh	AF4-AF9 inh	E coli growth
CCN1C(=O)[C@H]2[C@@H](c3ccc(-c4ccc(Cl)c(Cl)c4)cc3)N[C@@](C)(C(=O)OC)[C@H]2C1=O	-2	-2	-9.1	i	-27	25	0.7	-0.6	-19	/
CC(C)CC(c1nnnn1C(C)C)N1CCN(c2cccc(Cl)c2)CC1 (centres undefined)	/	/	/	/	11	18	3.6	1.1	/	0.79
CCC(CC)C(=O)Nc1cc(C(=O)OC)ccc1C(=O)OC	9	-1	-7.0	i	2	1	-31	-1.0	0.3	0.7
CCn1cc(CN(C)C(=O)CSc2nc(-c3ccco3)cc(C(F)(F)F)n2)c(C)n1	/	/	/	/	-10	-4	3.4	-0.4	/	0.72
O=C(C1COc2ccccc2O1)N1CCc2ccccc2C1 (centres undefined)	/	/	/	/	8	/	1.9	0.3	/	0.7
COCCn1c(-c2ccc(Cl)cc2)nc2oc3cc(OC)ccc3c(=O)c2c1=O	3	-1	-3.0	i	10	4	5.4	1.3	-2.8	0.62
COc1ccc(C2c3ccc(O)cc3Oc3ncn(CCN4CCOCC4)c(=N)c32)cc1OC (centres undefined)	5	9	-0.4	i	-6	-4	1.0	-0.4	-9.0	0.68
Cc1ccc(N2CC(O)Cn3c2nc2c3c(=O)[nH]c(=O)n2C)cc1 (centres undefined)	10	11	-0.4	i	-12	-1	3.0	0.7	-7.6	0.71
COc1ccc(CCNC(=O)CSCc2ccc(C)cc2)cc1OC	/	/	/	/	7	-12	2.7	1.2	/	0.71
Cc1cccc(C(=O)NCC(=O)OCc2nnc(-c3ccccc3)o2)c1	7	17	1.0	i	0	-2	1.0	-0.4	-1.7	0.7
O=C(NCc1ccc2c(c1)OCO2)c1ccc(Br)cc1	0	1	-1.2	i	-11	1	2.2	0.4	-1.8	0.67
CC1(C)Cc2ccccc2-c2nc(CN3CCOCC3)[nH]c(=O)c21	/	/	/	/	-1	-6	5.2	1.2	/	0.75
O=C(c1ccccc1-c1ncc[nH]1)N1CCCC(Nc2ccc(F)cc2)C1 (centres undefined)	8	11	1.6	i	-1	/	2.9	1.0	-8.9	0.73
O=C(Nc1cccc(S(=O)(=O)NC2=NCCC2)c1)c1cc(-c2ccccn2)nc2ccccc12	17	11	-4.7	i	3	0	2.4	0.2	1.1	0.71
COc1ccccc1N1CCN(C(=O)CCCN2C(=O)c3cccc4cccc(c34)C2=O)CC1	/	/	/	/	-19	-1	-5.4	-0.3	/	0.63
O=c1[nH]c(C2CCN(S(=O)(=O)c3cccc([N+](=O)[O-])c3)CC2)nc2c1nnn2Cc1ccccc1	-3	-6	-0.3	i	15	9	3.7	-0.4	4.1	0.68
CN(Cc1cccc(Cl)c1Cl)C(=O)c1cccc(S(=O)(=O)N2CCN(Cc3ccccc3)CC2)c1	7	0	20	i	35	57	1.6	0.5	1.5	0.74
COc1ccc(NC(=S)NC(=O)/C=C/c2ccco2)c(OC)c1	-8	-7	-7.6	i	0	-6	3.7	0.8	2.5	0.68
Cc1cc(OC(C)C(=O)NCc2cccnc2)c2c(C)c(C)c(=O)oc2c1 (centres undefined)	17	12	2.7	i	-2	-2	-14	-0.5	-0.5	0.68
COc1ccc(OC)c(N=Cc2c(O)c3ccccc3oc2=O)c1	12	7	2.8	i	-9	0	1.2	0.6	-2.9	0.66
CCCCn1c(CCC(=O)O)nc2cc(S(=O)(=O)N(CC)CC)ccc21	0	-1	-0.4	i	-2	-6	4.0	0.2	-13	0.71
COc1ccccc1CNC(=O)COc1ccccc1C(=O)c1cnn(-c2ccccc2)c1	/	/	/	i	/	1	4.7	-2.0	2.5	0.71
CCOC(=O)C1CCN(S(=O)(=O)c2ccc(OCC(=O)OC)cc2)CC1	10	11	0.6	/	-11	-3	4.0	-0.1	/	0.68
CCN(CC(=O)N1CCOCC1)S(=O)(=O)c1ccccc1	-2	2	-3.1	i	5	1	4.3	0.4	-0.2	0.69
Cc1cccc(/C=N/NC(=O)c2cc(Br)ccc2O)n1	4	4	1.5	i	-8	11	/	-2.0	-2.4	/

A draw from above in order of number of heavy atoms, smallest number first:
SMILES	rRNA inh HTS	rRNA inh HTS OD600	rRNA inh HTS RFP	FGF22 binding	T cruzi repl	Beta cell apopt	UCH37 inh	Bfl-1 A1 inh	AF4-AF9 inh	E coli growth
Cc1cccc(/C=N/NC(=O)c2cc(Br)ccc2O)n1	4	4	1.5	i	-8	11	/	-2.0	-2.4	/
CCC(CC)C(=O)Nc1cc(C(=O)OC)ccc1C(=O)OC	9	-1	-7.0	i	2	1	-31	-1.0	0.3	0.7
COc1ccc(NC(=S)NC(=O)/C=C/c2ccco2)c(OC)c1	-8	-7	-7.6	i	0	-6	3.7	0.8	2.5	0.68
Cc1ccc(N2CC(O)Cn3c2nc2c3c(=O)[nH]c(=O)n2C)cc1 (centres undefined)	10	11	-0.4	i	-12	-1	3.0	0.7	-7.6	0.71
Cc1cccc(C(=O)NCC(=O)OCc2nnc(-c3ccccc3)o2)c1	7	17	1.0	i	0	-2	1.0	-0.4	-1.7	0.7
CCn1cc(CN(C)C(=O)CSc2nc(-c3ccco3)cc(C(F)(F)F)n2)c(C)n1	/	/	/	/	-10	-4	3.4	-0.4	/	0.72
COc1ccccc1N1CCN(C(=O)CCCN2C(=O)c3cccc4cccc(c34)C2=O)CC1	/	/	/	/	-19	-1	-5.4	-0.3	/	0.63
O=c1[nH]c(C2CCN(S(=O)(=O)c3cccc([N+](=O)[O-])c3)CC2)nc2c1nnn2Cc1ccccc1	-3	-6	-0.3	i	15	9	3.7	-0.4	4.1	0.68

(more compounds)
SMILES	rRNA inh HTS	rRNA inh HTS OD600	rRNA inh HTS RFP	FGF22 binding	T cruzi repl	Beta cell apopt	UCH37 inh	Bfl-1 A1 inh	AF4-AF9 inh	E coli growth
COC(=O)c1ccc(C2/C(=C(/O)c3ccc(Cl)cc3)C(=O)C(=O)N2C2CCS(=O)(=O)C2)cc1 (centres undefined)	9	12	-3.0	i	-18	1	12	-0.9	-0.9	0.64
NN1C(=O)/C(=C2/Sc3ccccc3N2CCCS(=O)(=O)O)SC1=S	12	13	-2.5	i	0	-5	5.7	-0.7	2.9	0.71
O=C(O)c1cccc(-n2c(O)c(C=C3N=c4ccccc4=N3)sc2=S)c1	7	1	2.9	i	-5	4	7.3	-2.3	-2.7	0.65
CN(Cc1ccco1)C(=O)CCc1nc2sc3c(c2c(=O)[nH]1)CCCC3	4	8	-3.2	i	-5	-5	-3.7	0.1	-2.1	0.69
CCOC(=O)N1CCN(C(=O)CCNS(=O)(=O)c2ccc(C)c(C)c2)CC1	5	6	-1.6	i	-7	-4	/	-0.1	-6.4	/
CNc1ccccc1NC(=O)CCn1c(=S)oc2ccccc21	9	0	-4.2	i	-3	5	-2.2	-0.6	1.4	0.71
COCc1nnc(NC(=O)CCCOc2ccccc2)s1	/	/	/	/	1	5	0.1	-0.7	/	0.66
Cc1ccc2c(Cl)c(C(=O)NCCCn3ccnc3)sc2c1	/	/	/	/	27	9	2.7	0.5	/	0.74

This is a subset. The share of hits here may be higher or lower than overall.
